High-throughput results deposited in PubChem by National Center for Advancing Translational Sciences (NCATS).
ClpP mod – qHTS Assay for Activators of ClpP. purified B. subtilis ClpP, FRET peptide cleavage, 20 min. AID 651965, 2013. Potency, µM (series often up to 57.5 µM), inactives show top-dose activity change, negative = active. 340,000 tested, 1.9% active; active = well fitted falling curve with a large enough effect; inconclusive = small, poorly fitted or top-dose-only effect; inactive = no such curve, though single readings can be large or run the other way; note: potency is the fitted concentration of half-maximal effect; the source files actives as falling curves though it sought activators and does not explain the sign; nearly all actives have a fitted effect of over 65% in size; many hits overshoot -100%
Target sequence (P80244 whole entry, looked up): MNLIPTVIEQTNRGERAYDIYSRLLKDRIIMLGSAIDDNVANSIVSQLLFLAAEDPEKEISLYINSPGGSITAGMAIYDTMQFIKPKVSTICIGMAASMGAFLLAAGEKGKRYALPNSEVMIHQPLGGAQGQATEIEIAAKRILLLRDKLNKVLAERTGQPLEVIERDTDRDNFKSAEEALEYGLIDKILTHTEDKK
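ClpP 10 microg/mL final, pH 8 Tris/KCl buffer with BSA, glycerol, Tween-20; compound pinned in; FRET-FV substrate; RT 20 min; Ex320/Em430; ΔFRET vs ADEP 5.8 microM, DMSO, no enzyme.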
gsp ag – gsp mutant agonism. gsp mutant cells, cAMP HTRF, 30 min; control for the full effect not named in the record. Potency, µM (series often up to 76.9 µM), for inactives: at the top dose activation (cAMP increase), actives largely listed as activators. 340,000 tested, 0.13% active; active = well fitted activation curve with a large enough effect; inconclusive = small, poorly fitted or top-dose-only effect, or another doubt; inactive = no such curve, though single readings can be large or run the other way; cell line not stated here;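 note: phosphodiesterase inhibitor Ro 20-1724 added with compounds to block cAMP breakdown; potency is the fitted concentration of half-maximal effect; nearly all actives have a fitted effect of over 60% in size; about a fifth of the inactives were tested at one dose only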
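Cells stably selected in G418 were plated at 2000/well, grown 16-24 hr, then given compounds in DMSO with the PDE inhibitor […] (300 uM solution added) for 30 min at 37C; cAMP was read by HTRF.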
gsp antag – antagonists of gsp mutant (McCune-Albright syndrome); Potency, µM (series often up to 76.9 µM), inactives show top-dose activity change, negative = inhibition, actives largely listed as inhibitors; gsp-mutant cells, cAMP HTRF, 30 min; control for the full effect not named in the record; AID 624288; 340,000 tested, 0.4% active; active = falling curve of any shape with a large fitted effect; inconclusive = falling curve, mostly with a smaller effect; inactive = flat or rising curve; cell line not stated here;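 note: intracellular cAMP measured with PDE inhibitor Ro 20-1724 present during compound exposure; potency is the fitted concentration of half-maximal effect; % is set by controls: 0 for no effect and ±100 for the full control effect; nearly all actives have a fitted effect of over 65% in size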
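Cells in G418 medium, seeded 16-24 h, 37C; buffer exchange to DPBS + 1 mM CaCl2, 0.5 mM MgCl2, 0.05% BSA; cpds in DMSO + […] (300 uM stock), 30 min 37C; HTRF cAMP detection.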
D2 agonist – activates the human D2 dopamine receptor | P14416 | DiscoveRx PathHunter D2 beta-arrestin, luminescence, 90 min; 100% = 57 uM dopamine signal | activation, % (concentration not given with the values) | 360,000 tested, 0.084% active | AID 624465; in the data active = activation above about 40%; inconclusive = about 15% to 40%; inactive = below about 15%; note: compound concentration not given in the record; the text of the record calls up to 30% inactive
Target sequence (P14416 whole entry, looked up): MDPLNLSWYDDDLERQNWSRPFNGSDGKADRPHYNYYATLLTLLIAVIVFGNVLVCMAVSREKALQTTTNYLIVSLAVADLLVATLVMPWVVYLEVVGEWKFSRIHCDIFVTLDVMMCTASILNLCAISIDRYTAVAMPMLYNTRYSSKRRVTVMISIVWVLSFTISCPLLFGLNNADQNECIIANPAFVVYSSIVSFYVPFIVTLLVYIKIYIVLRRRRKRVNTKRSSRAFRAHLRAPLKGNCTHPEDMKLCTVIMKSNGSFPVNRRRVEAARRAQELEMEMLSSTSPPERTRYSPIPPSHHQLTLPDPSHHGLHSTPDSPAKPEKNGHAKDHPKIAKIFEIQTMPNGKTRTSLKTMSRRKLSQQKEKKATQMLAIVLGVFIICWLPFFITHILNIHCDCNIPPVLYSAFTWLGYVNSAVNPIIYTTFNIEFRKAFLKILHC
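DiscoveRx PathHunter D2 beta-arrestin cells (2,100/well) attached overnight, then compound-stimulated 90 min at 37 C in HBSS/10 mM HEPES/0.1% Tween-20 buffer; beta-galactosidase complementation read by luminescence after 1 h at ambient temperature. Dopamine 57 uM final (EC100) as control.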
Menin MLL FP FL – displaces fluorescein MLL peptide from human menin; FP activity change, % at 61.4 µM; Fluorescence polarization, fluorescein-MLL peptide displacement from menin; 290,000 tested, under 10 active; inconclusive = falling polarisation curve, or a change in total fluorescence; inactive = total fluorescence flat and polarisation flat or rising; no compound was filed as active; the % refers to the polarisation; negative = inhibition;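 note: % of control where 0% means no effect; inhibitors lower the polarisation; unlabelled MLL peptide was the positive control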
PINK1 modulator – changes PINK1 expression | PINK1 immunofluorescence, high-content cytometry, 24 h | Potency, µM (highest dose often 76.6 µM), for inactives: at the highest dose activation (PINK1 increase), hits mostly activators | 410,000 tested, 0.2% active; active = well fitted activation curve with a large enough effect; inconclusive = small, poorly fitted or top-dose-only effect; inactive = flat fitted curve, though single readings scatter; cell line not stated here;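 note: potency is the fitted concentration of half-maximal effect; % of control where 0% means no effect; nearly all actives have a fitted effect of over 65% in size; a mitochondrial uncoupler was the plate control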
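Readout is PINK1 immunofluorescence, quantified alongside mitochondrial, cell and nuclear markers by laser-scanning microplate cytometry. Cells from a stable line were exposed to compound titrations (5 concentrations) for 24 hours, with CCCP controls.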
Sfp inh – inhibitors of Bacillus subtilis Sfp phosphopantetheinyl transferase. Biochemical Sfp PPTase activity, qHTS. Potency, µM, inactives show max response, negative = inhibition, most hits filed as inhibitors. 310,000 tested, 3.5% active. AID 1490; active = well fitted inhibition curve with a large enough effect; inconclusive = small, poorly fitted or top-dose-only effect, or another doubt; inactive = no such curve, though single readings can be large or run the other way;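 note: the enzyme is Sfp with the accession as filed and its product quenches rhodamine fluorescence; potency is the fitted concentration of half-maximal effect; 0% = enzyme reaction without inhibitor and -100% = no enzyme wells; top concentration of the series not given in the record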
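Fluorescence-quenching assay with 15 nM Sfp, 5 uM rhodamine-CoA and 12.5 uM BHQ-2-labelled ybbR peptide in pH 7.6 Hepes/MgCl2 buffer. Enzyme was pre-incubated with compound for 15 min at room temperature. Rate was taken from the 30-min fluorescence change (525/598 nm).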
Numbers without * were called inactive; ? = inconclusive; nt = not tested or not shown; & = joins results of further samples; [ ] = dose if it differs, or a comment.

SMILES	ClpP mod	gsp ag	gsp antag	D2 agonist	Menin MLL FP FL	PINK1 modulator	Sfp inh
CN(CC(=O)NCC(=O)Nc1ccc(F)cc1)CC(=O)Nc1ccc(Cl)c(C(F)(F)F)c1	1.5%	?	5%	1.5	nt	4.2%	nt
CC(C)c1ccc(C2NC(C(=O)O)CS2)cc1 (configuration not stated)	1.6%	?	17%	-0.7	1.6	1.0%	50µM*
CCCN(CC1CC1)C(=O)COc1ccccc1C(=O)NCc1ccccc1	-21%	-14%	?	-2.8	0.9	-2.6%	5%
O=c1c2ccccc2ncn1Cc1ccccc1	nt	-1%[15.4 µM]	10%	-0.4	1.1	0.3%	5%
Cc1cccc(NC(=S)NCCc2ccccc2)n1	nt	-15%[15.4 µM]	nt	-4.5	-0.9	3.4%	56µM*
O=C(NCCCNc1ccc([N+](=O)[O-])cc1Cl)c1ccccc1F	nt	17%[15.4 µM]	-24%	-1.2	1.2	-0.8%	-1%
Cc1nc(SCC#N)c2c3c(sc2n1)CCC3	0.2%	5%	14%	-1.7	-0.6	4.1%	9%
Cc1c(C2(O)CCCCC2)[nH]c2cc(C(F)(F)F)ccc12	5.0%	nt	-18%	1.9	nt	?	nt
COc1ccc(C)cc1S(=O)(=O)N1CCN(S(=O)(=O)c2cc(C)ccc2OC)C(C)C1 (configuration not stated)	-1.3%	25%	?	-1.8	-0.7	-1.0%	2%
CCNC(=O)C1CCCN(C(=O)c2cc(C)oc2C)CC1 (configuration not stated)	-1.5%	nt	nt	-4.8	nt	4.0%	nt
CCCc1cc(-n2cnc3ccccc32)n2c(nc3ccccc32)c1C#N	7.6%	-8%	3%	-2.3	7.4	-2.0%	8%
S=C1SCN(CCN2CCOCC2)CN1Cc1ccccc1	-0.5%	-4%	7%	-3.7	-0.7	-1.0%[38.3 µM]	-7%
COc1ccc(COCCN2CCN(S(=O)(=O)c3ccc(C)cc3)CCC2=O)cc1	-3.7%	-16%	1%	-6.3	-0.4&3.8	0.4%	-4%&9%
Cc1nn(-c2ccncc2)c2c1C(=O)CC(C)(C)C2Br (configuration not stated)	-1.6%	nt	5%	4.4	nt	2.3%	nt
O=C(NCc1cccnc1)c1cc(C2CCCCN2C(=O)c2cccs2)on1 (configuration not stated)	-2.6%	nt	nt	-4.0	nt	0.1%	nt
CCOC(=O)C1CCN(C(=O)c2n[nH]c(=O)c3ccccc23)CC1	-4.4%	3%	10%	-1.2	4.5	0.6%	15%
CC(C)(C)CC(=O)Nc1nnc(-c2cccs2)s1	?	11%	11%	-1.5	5.3	0.1%	-28%
COc1ccc(C2C(C(C)=O)=C(O)C(=O)N2c2ccccn2)cc1 (configuration not stated)	nt	?	-11%	-0.9	-1.1	5.8%	0%
CC1(C(=O)NS(=O)(=O)c2ccccc2Cl)CCN1C(=O)CCc1ccc(Cl)cc1Cl (configuration not stated)	-0.1%	nt	nt	10	nt	-0.1%	nt
O=c1[nH]c(CSc2nnc(NCCCN3CCOCC3)s2)nc2cc(Cl)ccc12	-0.5%	1%	4%	-1.4	0.6	-3.4%	-8%
COc1ccc(-c2ccc3c(c2)C2CC3CCN2S(=O)(=O)c2ccccc2C)cc1 (configuration not stated)	-3.7%	nt	-2%	0.3	nt	-1.8%	nt
COC(=O)c1sccc1NS(=O)(=O)c1ccccc1[N+](=O)[O-]	1.8%	-9%[15.4 µM]	-2%	-0.4	nt	-1.3%	nt
O=C(CSc1nc2ccccc2c(=O)n1CCC(=O)N1CCCCC1)NCc1ccccc1	-1.7%	-41%[inhibitor]	-20%	-2.1	-0.3	11%[38.3 µM]	1%
COc1ccc(C2=NS(=O)(=O)N(C)C(C(=O)N3C(C)CCCC3C)=C2)cc1 (configuration not stated)	-7.5%	-9%	-20%	-9.1	0.9	-0.9%	-1%
CCCc1cc(=O)oc2cc(C)cc(OC(=O)c3ccco3)c12	17%	?	1%	-2.6	6.1	-0.2%[38.3 µM]	8%
COc1ccc(N2C(=O)CC(Sc3nc4c(cc3C#N)CCC4)C2=O)cc1 (configuration not stated)	nt	-13%[15.4 µM]	?	-4.7	0.8	0.0%	7%
Cc1ccc(N2C(=O)C3C4C=CC(CNC(=S)N5CCN(c6cccc(C)c6)C(C)C5)(O4)C3C2=O)cc1 (configuration not stated)	nt	-1%	4%	-2.6	-0.6	15%	20µM*
O=C(Nc1ccc2c(c1)C(=O)OC2)c1ccc(Cl)cc1	nt	7%[15.4 µM]	6%	-0.8	3.9	0.8%	30%
CCC(C)N(C(=O)Cn1cnc2c1c(=O)n(C)c(=O)n2C)C1CCS(=O)(=O)C1 (configuration not stated)	0.0%	?	1%	1.9	nt	4.8%	nt
Cc1c(N2C(=O)/C(=C/C3CC=CCC3)SC2=S)c(=O)n(-c2ccccc2)n1C (configuration not stated)	-2.8%	-10%[15.4 µM]	-3%	2.6	11	16%	45µM*
CC(C)NC(=O)N(C)C[C@H]1Oc2ccc(NC(=O)CCC(F)(F)F)cc2C(=O)N([C@H](C)CO)C[C@@H]1C	-0.2%	-1%	10%	-1.0	nt	0.1%	nt
O=C(Oc1cccnc1)c1ccco1	-2.3%	4%	8%	-1.4	-4.1	1.1%	-2%
CC(C)CCNC(=O)C(c1cccnc1)N(Cc1ccccc1)C(=O)Cn1nnc2ccccc21 (configuration not stated)	-11%	12%[15.4 µM]	-19%	2.9	nt	-1.1%	nt
N#CC1=C(N)OC2=C(C(=O)CCC2)C1CCc1ccccc1 (configuration not stated)	-0.6%	4%	9%	-1.0	8.8	1.9%	13%
CSc1ccc(S(=O)(=O)N2CCC(C(=O)Nc3ccc(C(N)=O)cc3)CC2)cc1	nt	?	-2%	-5.0	-4.6	1.0%	-2%
COc1ccccc1-c1nc(-c2ccc(C)nc2OC)no1	14µM*	17%	-7%	0.8	0.5	2.3%	13%
Cc1ccc(N(CC(=O)NCc2ccc3c(c2)OCO3)S(=O)(=O)c2c(C)noc2C)cc1	1.0%	-83%[inhibitor]	-23%	-3.6	0.6	7.7%	14%
Cn1cc(P(=S)(N2CCOCC2)N2CCOCC2)cc1P(=S)(N1CCOCC1)N1CCOCC1	nt	0%	-3%	2.8	0.9	-2.0%	-13%
COc1ccc(NC(=S)N(CCCN2CCOCC2)Cc2ccccn2)cc1	nt	0%[15.4 µM]	2%	-1.9	1.2	0.9%	-11%
O=C(CN1CCCCC1)Nc1nc(-c2ccc(F)c(F)c2)cs1	nt	2%	-16%	4.5	-0.8	-4.0%	6%
CC1(C)Cc2nc3sc4c(N(CCO)CCO)nnnc4c3cc2CO1	3.7%	-4%	6%	-3.8	-0.2	1.7%	32%[activator]
COc1ccc(CN(CC(=O)NCC2CCCO2)C(=O)CNS(=O)(=O)c2ccccc2)cc1 (configuration not stated)	nt	-1%	11%	-3.1	4.5	-1.9%	9%
CC1=CS(=O)(=O)CC1Sc1ncn[nH]1 (configuration not stated)	-0.5%	?	1%	-0.1	1.2	-0.4%	14%
Cc1cccc(-n2c(-c3ccncc3)n[nH]c2=S)c1C	-0.7%	-15%	-1%	-3.6	3.4	1.0%	?
CC(=O)NC(=S)Nc1ccc(NC(=O)c2cccnc2)cc1	1.0%	1%[15.4 µM]	-17%	0.5	3.0	1.7%	12%
CN(C)c1nc(NCc2ccccc2)nc(SCC(=O)Nc2ccc(Cl)c(Cl)c2)n1	-1.2%	-39%[inhibitor]	-4%	1.7	3.5	5.1%[38.3 µM]	2%
COc1cc(OC)c(NC(=O)c2c(-c3ccccc3)noc2C)cc1Cl	78%	-1%	7%	-0.2	-0.6	6.1%[38.3 µM]	12%
CN(C)c1ncnc2ccc(-c3ccccc3C#N)cc12	nt	nt	nt	nt	0.8	0.7%	3%
O=S(=O)(NCCc1csc(-c2cccnc2)n1)c1ccc2c(c1)OCCO2	-10%	28%	1%	-2.1	3.8	1.2%	8%
Cc1cc(NC(=O)C2CCN(S(=O)(=O)Cc3ccccc3)CC2)ccc1-n1cnnn1	-2.9%	-9%	-25%	-1.6	6.1	0.6%	21%
CC(Oc1ccc(Cl)cc1)C(=O)Nc1cccc(S(=O)(=O)N2CCOCC2)c1 (configuration not stated)	1.9%	-55%[inhibitor]	-9%	-2.6	nt	0.9%	nt
Cc1nc2ccc(C(=O)OCc3nnc(-c4ccc(Br)cc4)o3)cc2nc1C	-1.0%	-28%[15.4 µM]	-10%	-6.5	nt	5.8%	6%
COc1cc(C2/C(=C(\O)c3ccc4c(c3)OCCO4)C(=O)C(=O)N2Cc2ccccc2)ccc1O (configuration not stated)	nt	-3%	-7%	-1.4	5.6	1.5%	-5%
COc1cc2c(cc1OC)C(c1c(Cl)cccc1Cl)NC(=O)C2 (configuration not stated)	0.9%	3%	-19%	8.0	1.8	0.5%	2%
Cc1cccc(C(=O)OCC(=O)Nc2c(C)nn(-c3ccccc3)c2C)c1O	-4.5%	-3%	-12%	-2.0	nt	0.0%	nt
CCCCNC(=O)C1(C)CCN1C(=O)c1ccc(OC)c(C(F)(F)F)c1 (configuration not stated)	-2.0%	nt	nt	6.9	nt	1.0%	nt
CCOc1cc2oc(=O)c3c(c2cc1Cl)CCC3	-25%	0%	-1%	0.5	-5.7	14%[38.3 µM]	2%
CCC(=O)NCCc1nc2ccccc2n1Cc1ccccc1	-1.0%	1%	19%	0.9	0.5	3.6%	13%
COc1ccccc1OCCSc1nc(C)c(Cc2ccccc2)c(=O)[nH]1	-3.3%	?	-12%	-0.2	0.4	4.4%	6%
COc1ccc(N(CC(=O)NCc2ccc(Cl)cc2)S(=O)(=O)c2c(C)nn(C)c2C)cc1	0.4%	-25%	-10%	-0.8	nt	0.4%	14%
O=c1ccc2ccc(O)cc2o1	4.5%	nt	7%	1.8	?	1.0%&-1.2%	-5%
